MLL AF4-AF9 inh = inhibitors of AF4 peptide binding to AF9, primary screen, biochemical, AlphaScreen, biotin-AF4 peptide, FLAG-AF9, single point. hit rate 0.47% among 350,000. inhibition, % at 10 µM. AID 651704, 2012;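 active = every replicate reaching a set inhibition limit, whatever the replicate mean, cut at about 25% in these data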;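 note: 0% = plate neutral control median and 100% = total signal loss; the record names both 10 and 1 µM as test concentration; the first replicate is given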
Target sequence (P42568 whole entry, looked up): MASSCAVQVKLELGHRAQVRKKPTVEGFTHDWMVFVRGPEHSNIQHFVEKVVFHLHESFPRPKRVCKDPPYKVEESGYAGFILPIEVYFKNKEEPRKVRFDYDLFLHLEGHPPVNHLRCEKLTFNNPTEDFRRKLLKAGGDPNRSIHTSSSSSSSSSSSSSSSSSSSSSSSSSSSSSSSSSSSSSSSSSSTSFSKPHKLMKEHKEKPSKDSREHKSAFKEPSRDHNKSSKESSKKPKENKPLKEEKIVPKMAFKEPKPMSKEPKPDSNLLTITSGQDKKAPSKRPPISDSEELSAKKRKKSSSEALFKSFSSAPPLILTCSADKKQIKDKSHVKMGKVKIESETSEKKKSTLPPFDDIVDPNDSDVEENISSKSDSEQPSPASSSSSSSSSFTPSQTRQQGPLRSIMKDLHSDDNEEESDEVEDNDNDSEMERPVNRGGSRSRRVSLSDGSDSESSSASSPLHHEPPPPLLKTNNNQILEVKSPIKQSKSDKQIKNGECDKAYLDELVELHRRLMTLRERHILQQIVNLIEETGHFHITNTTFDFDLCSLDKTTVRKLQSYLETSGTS
Active calls of the source: *; & = joins results of further samples.

SMILES	MLL AF4-AF9 inh
CC(C)NC(=O)Nc1ccc2c(c1)C(=O)N([C@@H](C)CO)C[C@H](C)[C@@H](CN(C)CC1CCCCC1)OCCCC[C@@H](C)O2	6.1
COc1cccc(C#Cc2ccc([C@@H]3[C@@H](C#N)N(C(=O)C4CC4)[C@@H]3CO)cc2)c1	-2.0
CO[C@H]1CN(C)C(=O)c2cc(NS(C)(=O)=O)ccc2OC[C@@H](C)N(C(=O)CC2CC2)C[C@@H]1C	0.6
CO[C@H](CN(C)C(=O)C1CCOCC1)[C@@H](C)CN([C@H](C)CO)S(=O)(=O)c1ccccc1	-3.0
C[C@@H]1CN([C@H](C)CO)C(=O)Cc2cc(NC(=O)CCN3CCOCC3)ccc2O[C@@H]1CN(C)C(=O)Nc1ccc(C(F)(F)F)cc1	1.7
COc1cccc(S(=O)(=O)Nc2ccc3c(c2)OC[C@@H](C)N(Cc2ccccc2F)C[C@@H](C)[C@@H](OC)CN(C)C3=O)c1	2.6
O=C(NC1CCCC1)N1CC(=O)N2[C@H](C1)[C@H](c1ccc(-c3cccc(F)c3)cc1)[C@@H]2CO	0.0
CN(C)C(=O)c1ccc(-c2ccc(C3[C@@H]4CN(S(=O)(=O)c5ccccc5)C[C@H]3N4)cc2)cc1 (stereo not given in full)	-9.5&-7.5
CCC(=O)N1CC(=O)N2[C@H](CO)[C@H](c3ccc(C#Cc4cccnc4)cc3)[C@@H]2C1	-14.5
C[C@@H]1CCCCO[C@@H](CN(C)S(=O)(=O)c2ccc(Cl)cc2)[C@H](C)CN([C@@H](C)CO)C(=O)c2cc(NC(=O)Nc3cccc4ccccc34)ccc2O1	-1.1
COC(=O)c1ccc2nc(C3CCCCC3)c(Cc3ccccc3C(F)(F)F)n2c1	4.2
CC=Cc1ccc2n(c1=O)C[C@@H]1[C@@H](CO)[C@H](C(=O)N[C@@H](C)c3ccccc3)[C@H]2N1Cc1ccncc1 (mixture of isomers)	1.0
Cc1ccc(S(=O)(=O)N(C)C[C@@H]2Oc3ccc(NC(=O)CCCN(C)C)cc3C(=O)N([C@@H](C)CO)C[C@H]2C)cc1	-0.6
COc1ccc(NC(=O)Nc2ccc3c(c2)C(=O)N([C@H](C)CO)C[C@H](C)[C@@H](CN(C)Cc2ccccc2)O3)cc1	-0.1
C[C@@H]1CN([C@@H](C)CO)C(=O)c2cc(NC(=O)Cc3ccccc3)ccc2O[C@@H]1CN(C)C(=O)NC1CCCCC1	-3.3
C[C@@H]1CN([C@@H](C)CO)C(=O)c2cc(NC(=O)C3CC3)ccc2O[C@@H]1CN(C)Cc1ccc(Oc2ccccc2)cc1	8.8
COc1ccc(NC(=O)N(C)C[C@@H]2Oc3ncc(C4=CCCC4)cc3C(=O)N([C@H](C)CO)C[C@H]2C)cc1	-1.9
Cc1cccc(S(=O)(=O)N2[C@@H]3c4cccc(=O)n4C[C@H]2[C@H](CO)[C@H]3C(=O)N(C)C)c1	-2.2
CN1CCN(C(=O)C[C@H]2CC[C@H]3[C@@H](COC[C@H](O)CN3Cc3cccc(-c4ccncc4)c3)O2)CC1	0.1
C[C@@H]1CN([C@H](C)CO)C(=O)c2cccc(NS(=O)(=O)c3cn(C)cn3)c2O[C@@H]1CN(C)S(=O)(=O)c1cn(C)cn1	0.6
CC(=O)N(C)C[C@H]1Oc2cc(-c3cncnc3)ccc2S(=O)(=O)N([C@@H](C)CO)C[C@@H]1C	-1.7
COC(=O)[C@H](Cc1ccccc1)N1C(=O)O[C@@H](Cc2ccccc2)[C@H]1/C=C/C1CC1	-3.6
CCCC(=O)Nc1ccc2c(c1)OC[C@@H](C)N(C(=O)c1ccncc1)C[C@H](C)[C@H](OC)CN(C)C2=O	-2.5
COc1ccc(NC(=O)N(C)C[C@@H]2Oc3c(NC(=O)c4cnccn4)cccc3C(=O)N([C@H](C)CO)C[C@H]2C)cc1	-4.0
COc1cccc(CN2CCC2(C)C(=O)Nc2cccc(Oc3ccccc3)c2)c1F (stereo not given)	-1.3
Additional compounds follow.
SMILES	MLL AF4-AF9 inh
O=C(c1ccc(F)cc1)N1CC(=O)N2[C@H](CO)[C@@H](c3ccc(C#Cc4ccc(F)cc4)cc3)[C@@H]2C1	-2.0
C[C@H]1CN([C@@H](C)CO)C(=O)c2c(c3ccccc3n2C)-c2ccccc2CO[C@@H]1CN(C)Cc1ccc2c(c1)OCCN2C	34.3*
O=C(Nc1ccc(F)cc1)N1CCCCN2[C@H](CO)[C@@H](c3ccc(-c4ccccc4F)cc3)[C@H]2C1	9.7
C[C@H](CO)N1C[C@H](C)[C@@H](CN(C)Cc2cccc(C(F)(F)F)c2)OCc2cn(nn2)CCCC1=O	0.8
CCC(=O)N1CC2(C1)[C@H](c1ccccc1)[C@H](CO)N2Cc1cc(F)ccc1F	-0.6
C[C@H]1CN([C@@H](C)CO)C(=O)c2cc(NS(=O)(=O)c3cn(C)cn3)ccc2O[C@H]1CN(C)C(=O)Nc1ccccc1	-1.8
CC(C)NC(=O)NCC[C@@H]1CC[C@@H](NC(=O)CCN2CCCCC2)[C@H](CO)O1	6.4
COC(=O)C1=C(C)N(C)C(=NCc2ccc(OC)cc2)NC1c1ccc(C(F)(F)F)cc1 (stereo not given)	1.0
COc1ccccc1-c1cnc(C(O)c2ccc(Cl)c(Cl)c2)[nH]1 (stereo not given)	4.0
CN(C)c1cc(C(=O)N(C)c2ccccc2)ncn1	-5.4
Cc1nc(S(=O)(=O)NC2CCN(Cc3ccc(OCCO)cc3)CC2)cn1C	4.4
C[C@@H]1CN([C@@H](C)CO)C(=O)Cc2cc(NC(=O)Nc3ccc4c(c3)OCO4)ccc2O[C@@H]1CN(C)Cc1ccc(C(F)(F)F)cc1	-3.0
CC(C)NC(=O)Nc1ccc2c(c1)CC(=O)N([C@H](C)CO)C[C@@H](C)[C@H](CN(C)C(=O)Nc1cccc3ccccc13)O2	-1.9
O=C(Nc1cccc(F)c1)N1CC(=O)N2[C@H](CO)[C@H](c3ccc(Br)cc3)[C@H]2C1	-2.0
C[C@@H]1CN([C@H](C)CO)C(=O)c2cccc(NS(=O)(=O)c3ccc(F)cc3)c2O[C@H]1CN(C)Cc1ccc(C(=O)O)cc1	-1.2
C[C@H](c1ccccc1)N1C[C@@H](COCc2ccccc2)Oc2cccc(Oc3ccc(F)cc3)c2S1(=O)=O	-0.3
Cc1c(C(=O)NCc2cccc(Cl)c2)sc(=O)n1Cc1ccc(C(=O)N(C)C)cc1	-1.5
CO[C@H]1CN(C)C(=O)c2cc(NC(=O)c3ccc(F)cc3)ccc2OC[C@H](C)N(C(=O)CN(C)C)C[C@@H]1C	1.5
OC[C@@H]1CN(CCN2CCOCC2)C[C@H](n2cnc3c(N4CCCC4)ncnc32)O1	-1.6
C[C@@H]1CN([C@H](C)CO)C(=O)c2cc(NC(=O)CCCCCC(=O)Nc3ccccc3N)ccc2O[C@@H]1CN(C)C(=O)NC1CCCCC1	-1.3
CCOC(=O)C1(C)CCCCN1C(=O)c1ccc(N(C)C)cc1 (stereo not given)	-0.5
C[C@@H]1CN([C@@H](C)CO)C(=O)c2cc(NC(=O)c3ccncc3)ccc2O[C@@H](C)CCCCO[C@@H]1CN(C)C(=O)Nc1ccc(C(F)(F)F)cc1	-2.5
Fc1ccc(CCn2c(Cn3c(-c4cnccn4)nc4ccccc43)nc3ccccc32)cc1	-16.9
C[C@@H]1CN([C@@H](C)CO)C(=O)c2cc(NC(=O)Cc3cn(C)c4ccccc34)ccc2O[C@H]1CN(C)C(=O)Nc1ccccc1	0.8
C[C@@H]1CCCCO[C@H](CN(C)C(=O)C2CCCCC2)[C@@H](C)CN([C@H](C)CO)C(=O)c2cc(NC(=O)Nc3ccc4c(c3)OCO4)ccc2O1	0.2

In a second layout: entries from further up
CN(C)c1cc(C(=O)N(C)c2ccccc2)ncn1
- MLL AF4-AF9 inh = -5.4
OC[C@@H]1CN(CCN2CCOCC2)C[C@H](n2cnc3c(N4CCCC4)ncnc32)O1
- MLL AF4-AF9 inh = -1.6
CCOC(=O)C1(C)CCCCN1C(=O)c1ccc(N(C)C)cc1 (stereo not given)
- MLL AF4-AF9 inh = -0.5
C[C@@H]1CCCCO[C@H](CN(C)C(=O)C2CCCCC2)[C@@H](C)CN([C@H](C)CO)C(=O)c2cc(NC(=O)Nc3ccc4c(c3)OCO4)ccc2O1
- MLL AF4-AF9 inh = 0.2

Further structures:
SMILES	MLL AF4-AF9 inh
CCc1nc2c(OCc3ccc(C(F)(F)F)cc3)cccn2c1N(C)C(C)=O	-10.9
CC(C)NC(=O)N(C)C[C@H]1Oc2ccc(NC(=O)Cc3cn(C)c4ccccc34)cc2C(=O)N([C@@H](C)CO)C[C@@H]1C	-6.8
COC(=O)c1cc2c(c3c4cc(OC)ccc4n(S(=O)(=O)c4cccc(C)c4)c13)C(=O)N(C)C2	1.9
O=C(C[C@@H]1CC[C@@H]2[C@H](COC[C@@H](O)CN2Cc2cccc(F)c2)O1)NCCc1ccncc1	-1.9
C[C@H](NC(=O)[C@H]1[C@H](CO)[C@H]2Cn3c(cccc3=O)[C@@H]1N2C(=O)C1CC1)c1ccccc1	0.1
C[C@@H]1CN([C@@H](C)CO)C(=O)Cc2cc(NS(=O)(=O)c3ccc(Cl)cc3)ccc2O[C@@H]1CN(C)Cc1ccc(C(=O)Nc2ccccc2N)cc1	0.9
CC(=O)Oc1ccc(Cn2c(C)c(C(=O)N(C)Cc3ccc(F)cc3)sc2=O)cc1	-41.2
CCCCC[C@H](C)N1C[C@@H](COCc2ccccc2)Oc2cc(N3CCC[C@H]3COC)ccc2S1(=O)=O	-3.3
CC(=O)NC[C@H]1[C@H](c2ccc(-c3ccccc3F)cc2)[C@@H](CO)N1C(=O)C1CC1	-0.3
COc1ccc(S(=O)(=O)Nc2ccc3c(c2)C(=O)N([C@H](C)CO)C[C@@H](C)[C@H](CN(C)S(=O)(=O)c2ccccc2)OCCCC[C@H](C)O3)cc1	0.5
COc1ccc(CN(C)C(=O)/C=C/[C@H]2O[C@@H](n3cnc4c(N)ncnc43)[C@H](O)[C@@H]2O)cc1OC	-3.1
CNC[C@H]1Oc2c(NC(=O)Nc3ccc(F)cc3)cccc2C(=O)N([C@H](C)CO)C[C@@H]1C	-2.5
CS(=O)(=O)Nc1cccc(NC(=O)C2Cc3c(-c4cccc(C(N)=O)c4)ccnc3O2)c1 (stereo not given)	0.1
O=C(c1cccnc1)N1C[C@@H]2[C@H](c3ccccc31)[C@H](CO)N2C(=O)Nc1cccc(F)c1	-0.8
CCCNC(=O)N(C)C[C@@H]1Oc2ncc(-c3ccncc3)cc2C(=O)N([C@@H](C)CO)C[C@H]1C	-0.7
O=C(C[C@H]1CC[C@@H]2[C@H](COC[C@H](O)CN2C(=O)Nc2ccc(Cl)c(Cl)c2)O1)NCc1ccccc1	-1.9
COCC(=O)Nc1ccc2c(c1)C(=O)N(C)[C@@H]1CC[C@H](CC(=O)NCc3ccccc3F)O[C@@H]1CO2	-7.9
O=S(=O)(N[C@H]1CC[C@H](CCn2cc(C3(O)CCCC3)nn2)O[C@H]1CO)c1ccc(F)cc1	0.9
C[C@@H]1CN([C@H](C)CO)C(=O)c2cc(-c3ccccc3)cnc2O[C@H]1CN(C)C(=O)Nc1ccccc1F	-18.2
C[C@@H]1CN([C@@H](C)CO)S(=O)(=O)c2ccc(-c3ccc(F)cc3)cc2O[C@H]1CN(C)C(=O)c1ccccc1F	3.0
CC(=O)N(C)C[C@@H]1Oc2ncc(C3=CCCC3)cc2C(=O)N([C@H](C)CO)C[C@@H]1C	-5.8
O=C(Cc1ccncc1)Nc1ccc2c(c1)[C@@H]1C[C@@H](CC(=O)N3CCCCC3)O[C@H](CO)[C@@H]1O2	-0.6
CCCNC(=O)N[C@@H]1CC[C@@H](CCn2cc(-c3cccc(F)c3)nn2)O[C@H]1CO	-0.5
CCN(CC(=O)Nc1ccc(OC)cc1)C(=O)c1cccc(S(=O)(=O)N2CCN(c3ccccc3)CC2)c1	-3.3
CC(=O)N1[C@@H]2c3ccc(C4=CCCC4)c(=O)n3C[C@@H]2[C@@H](CO)[C@@H]1C(=O)N1CCCCC1	-0.2

MLL AF4-AF9 inh: what is marked active above
SMILES	MLL AF4-AF9 inh
C[C@H]1CN([C@@H](C)CO)C(=O)c2c(c3ccccc3n2C)-c2ccccc2CO[C@@H]1CN(C)Cc1ccc2c(c1)OCCN2C	34.3*

The list continues.
SMILES	MLL AF4-AF9 inh
Cc1cc(Br)cn2c(Cc3ccsc3)c(-c3cccc(Cl)c3)nc12	-1.0
COC(=O)c1cc2c(c3c4cc(F)ccc4n(S(=O)(=O)c4ccccc4)c13)C(=O)N(C)C2	0.8
O=C(C[C@H]1C=C[C@@H](NC(=O)Nc2cc(F)ccc2F)[C@@H](CO)O1)NCCCN1CCOCC1	-3.7
C[C@@H]1CN([C@@H](C)CO)C(=O)c2cccc(NC(=O)C3CCOCC3)c2O[C@@H]1CN(C)S(C)(=O)=O	-4.7
O=C(CN1CCOCC1)N[C@@H]1CC[C@H](CCn2cc(C3CCCC3)nn2)O[C@@H]1CO	-1.1
C[C@@H]1CN([C@H](C)CO)C(=O)c2cc(NS(=O)(=O)c3ccc(F)cc3)ccc2O[C@@H](C)CCCCO[C@H]1CN(C)Cc1ccc(Cl)c(Cl)c1	7.2
COCC(=O)Nc1ccc2c(c1)C(=O)N(C)C[C@H](OC)[C@H](C)CN(C(=O)c1ccccc1F)[C@@H](C)CO2	-0.1
CCCNC(=O)N1[C@H](CO)[C@H](c2ccccc2)[C@@H]1CNC(=O)C1CC1	-3.7
Cc1ccc(S(=O)(=O)N(C)C[C@@H]2Oc3c(NC(=O)C4CCCCC4)cccc3C(=O)N([C@H](C)CO)C[C@@H]2C)cc1	-3.8

High-throughput results: PubChem BioAssay, Broad Institute

Only part of the results is shown (hit frequency here may not be typical).
